Source: PubChem (National Center for Advancing Translational Sciences (NCATS))
2A StopGo = lowers the luciferase signal of an FMDV 2A StopGo reporter; hit rate 1.2% among 410,000; Potency, µM (top dose mostly 57.9 µM), inactives show top-dose signal change, negative = less light; human cells with a luciferase reporter of 2A StopGo recoding; control for the full effect not named in the record; active = well fitted falling curve with a large enough effect; inconclusive = small, poorly fitted or top-dose-only effect; inactive = no such curve, though single readings can be large or run the other way; tested in HEK293T cells; also: nearly all actives have a fitted effect of over 45% in size; luciferase light after 4 h
RE007 growth inh = less growth of the S. pombe RE007 Vpr strain | AID 651644 | S. pombe RE007 Vpr strain, BacTiter-Glo ATP luminescence, 24 h; control for the full effect not named in the record | hit rate 0.21% among 360,000 | Potency, µM (titrated, usually from 92.2 µM), for the others: at the top dose activity change, negative = less growth; active = well fitted falling curve with a large enough effect; inconclusive = small, poorly fitted or top-dose-only effect; inactive = no such curve, though single readings can be large or run the other way;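 also: nearly all actives have a fitted effect of over 50% in size; the assay follows cell death caused by Vpr and the record does not say whether a fall means rescue or toxicity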
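Fission yeast strain RE007, carrying one chromosomally integrated HIV-1 vpr copy, was seeded at OD 0.01 in PMG+AL medium with 23 nL pinned compound. After 24 h at 30 °C and 99% humidity, viability was read by BacTiter-Glo luminescence.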
The depositor's hits bear a star; ? = inconclusive; [ ] = another dose, or the depositor's remark. % is scaled to controls: 0 for no effect and ±100 for the full control effect; potency is read from the fitted curve at half-maximal effect. This is a subset; count on the stated rates, not on these rows.

smiles | 2A StopGo | RE007 growth inh
COc1cc(CCC(=O)Nc2cc(S(=O)(=O)N3CCOCC3)ccc2OC(C)C)cc(OC)c1OC | -11% | -11%
N#Cc1cccc(NC(=O)c2cc(C3CCCCN3S(=O)(=O)c3ccccc3)on2)c1 (stereo not drawn) | 0% | 6%[18.4 µM]
CN(C)c1nc(N)nc(CSc2nnnn2-c2ccc(Cl)cc2)n1 | -2% | -16%
CCOC(=O)[C@]12CCC=C1N(CCC1=CCCCC1)C(=O)[C@H](CC(=O)N1CCC(c3ccccc3)CC1)C2 | -7% | -2%
[O-][N+](=Cc1c(Cl)cccc1Cl)CC1(O)CCCCC1 | 2% | 3%
O=C(NCc1cccs1)c1ccc2nc([C@@H]3O[C@H](CO)[C@H](O)[C@H](O)[C@H]3O)[nH]c2c1 | -18% | -2%
O=C1C=C(O)CC2(CCCCC2)C1 | -18% | -4%
COc1cccc(Nc2nc(CN)cs2)n1 | 12% | -5%[18.4 µM]
COc1ccccc1Cc1c(C2CCCCC2)nc2ccc(C)cn12 | -4% | ?
Cc1ccc2ccccc2c1C(O)c1ncc(-c2ccccc2F)[nH]1 (stereo not drawn) | 36%[activator] | -19%
CCOc1ccccc1OCC(=O)NC1CCSc2ccccc21 (stereo not drawn) | -15% | 15%
CC(C)C(C=Cc1ccccc1)=NNS(=O)(=O)c1ccccc1 | -7% | -2%
COc1ccccc1S(=O)(=O)N(C)C[C@@H]1OCc2cnnn2CCCC(=O)N([C@H](C)CO)C[C@H]1C | -9% | -3%
C[N+](C)(C)CCNC(=O)c1c[nH]c2ccccc12 | -21% | 6%
CCOC(=O)C1(c2ccccc2)CCN(CCC(C#N)(c2ccccc2)c2ccccc2)CC1 | ? | 1%[18.4 µM]
COc1cccc(Nc2ncnc3ccc(Br)cc23)c1 | 0% | -13%
O=C(Cn1cc(COc2ccc3ccccc3c2)nn1)NS(=O)(=O)c1cccc(OC(F)F)c1 | -6% | -2%
C[C@H]1CN([C@@H](C)CO)C(=O)CCCn2nncc2CO[C@H]1CN(C)S(=O)(=O)c1ccccc1 | -21% | -14%
NC(Cc1ccc(C(F)(F)F)cc1)c1csc(NC(=O)Nc2ccccc2Oc2ccccc2)n1 (stereo not drawn) | 0% | 11%
CC(=O)Nc1cccc(-c2ccnc3c2CC(C)(C(=O)NCCc2ccccc2)O3)c1 (stereo not drawn) | -16% | -7%[18.4 µM]
COCC#Cc1ccc2c(c1)O[C@@H](CN(C)S(=O)(=O)c1cccc(F)c1)[C@@H](C)CN([C@H](C)CO)S2(=O)=O | -11% | -6%
CCOC(=O)[C@]12CCCC=C1N(Cc1ccccc1)C(=O)[C@H](CC(=O)NCc1ccc(OC)c(OC)c1)C2 | -7% | -11%
O=C1c2c(-c3ccc(Br)cc3)noc2CCN1Cc1cn(-c2ccc(Cl)cc2)nn1 | ? | -9%
C[C@H]1CN([C@@H](C)CO)S(=O)(=O)c2ccc(Br)cc2O[C@H]1CN(C)C(=O)c1cnccn1 | 2% | -8%
CCOc1ccc(NC(=O)c2cccc(S(=O)(=O)NCc3cccnc3)c2)cc1 | -24% | 4%
C[C@@H]1CN([C@H](C)CO)C(=O)CCCn2cc(nn2)CO[C@H]1CN(C)S(=O)(=O)c1cccc(C#N)c1 | 0% | 27%
COc1ccc(CC(=O)NCc2cccc(Cl)c2)cc1S(=O)(=O)N1CCOCC1 | -19% | 0%
Cc1ccc(S(=O)(=O)N2[C@@H](CO)CO[C@H]2CC(=O)c2cccs2)cc1 | -3% | 26%
O=C(COC(=O)/C=C/c1ccc(Cl)cc1Cl)Nc1cccc(S(=O)(=O)NC2=NCCC2)c1 | 0% | 2%
COc1ccc(-c2cc3ccccc3oc2=O)cc1 | 68%[activator] | -23%

Rewritten with each value named: entries from further up
C[N+](C)(C)CCNC(=O)c1c[nH]c2ccccc12
  2A StopGo: -21%	RE007 growth inh: 6%
CCOC(=O)C1(c2ccccc2)CCN(CCC(C#N)(c2ccccc2)c2ccccc2)CC1
  2A StopGo: ?	RE007 growth inh: 1%[18.4 µM]
COc1cccc(Nc2ncnc3ccc(Br)cc23)c1
  2A StopGo: 0%	RE007 growth inh: -13%
O=C(Cn1cc(COc2ccc3ccccc3c2)nn1)NS(=O)(=O)c1cccc(OC(F)F)c1
  2A StopGo: -6%	RE007 growth inh: -2%

Additional structures follow.
smiles | 2A StopGo | RE007 growth inh
COC(=O)C1=C(c2cccc(OC)c2OC)C[C@@H]2CC[C@H]1N2C(=O)N1CCCCC1 | -5% | 5%
COc1cc2c(cc1OC)C(CNC(=O)C=Cc1cc(OC)c(OC)c(OC)c1)C2 (stereo not drawn) | 0% | -8%
Cc1ccc(S(=O)(=O)N2C[C@H]3N(C(=O)OC(C)C)N(C(=O)OC(C)C)C[C@H](OC(=O)Nc4c(C)noc4C)[C@@]3(O)C2)cc1 | ? | -2%
CC(=O)Nc1ccc(S(=O)(=O)NCc2ccc(C(=O)NCCN(C)Cc3ccccc3)cc2)cc1 | -5% | 1%[18.4 µM]
CCC1(c2ccc(F)cc2)NC(=O)N(CC(=O)Nc2cccc(S(=O)(=O)N3CCCC3)c2)C1=O (stereo not drawn) | -15% | 2%
FC(F)C(F)(F)Oc1cccc(Nc2nccn3c(-c4ccc5ccccc5c4)cnc23)c1 | ? | -9%
O=C(Nc1ccc2c(c1)OCCO2)C(CCc1ccccc1)N(Cc1ccccc1)Cc1ccccc1 (stereo not drawn) | -13% | -8%
CC[C@@H]1Cc2[nH]c(=O)[nH]c(=O)c2[C@H](c2ccc(Cl)cc2)O1 | -17% | -16%
COCCN1C[C@@H](CO)O[C@@H](n2cnc3c(N4CCN(C)CC4)ncnc32)C1 | 4% | 10%[18.4 µM]
COc1cccc(CNC[C@H]2O[C@@H](n3ccc(N)nc3=O)[C@H](O)[C@@H]2O)c1OCc1ccc(F)cc1Cl | 0% | -16%
CC1(C(=O)NCc2cccc(C(F)(F)F)c2)CCN1Cc1ccc(-c2ccccc2)o1 (stereo not drawn) | -25% | 6%[18.4 µM]
Cc1cc(C)n2c(SCC(=O)N(CCC#N)c3ccc4c(c3)OCCO4)nnc2n1 | 7% | -11%
Nc1nc2c(ncn2[C@@H]2O[C@H](CNC(=O)[C@H](N)Cc3cncn3COCc3ccccc3)[C@@H](O)[C@H]2O)c(=O)[nH]1 | -21% | 1%
N#Cc1ccc(S(=O)(=O)N2CCCCC2c2cc(C(=O)N3CCOCC3)no2)cc1 (stereo not drawn) | ? | -4%
COC(=O)C1=C(c2ccc(OCc3ccccc3)cc2)C[C@@H]2CC[C@H]1N2C(=O)NCc1ccccc1C(F)(F)F | -13% | -22%
COc1ccc(C2=Nc3ccccc3N(C(=O)Cc3cc(OC)cc(OC)c3)C2C(=O)NC(C)C)cc1 (stereo not drawn) | 13% | 4%
O=c1[nH]c(-c2ccccc2)ncc1Oc1ccccc1 | 3% | 3%
CCOC(=O)[C@]12CCC=C1N(Cc1cccc3ccccc13)C(=O)[C@H](CC(=O)NCc1cccs1)C2 | -6% | 3%
O=C1NC[C@H](CCCCN2CCN(CCc3ccc(O)cc3)C(=O)C2=O)N(CCC2CCCCC2)C1=O | -15% | 5%
FC(F)(F)c1cccc(CC2CN(Cc3ccccc3)Cc3ccccc3N2c2cc(Cl)cc(Cl)c2)c1 (stereo not drawn) | -22% | -9%
O=C(CN1CCN(Cc2ccccc2)CC1)Nc1cccc(Cl)c1Cl | -19% | -9%
Cn1nccc1C(=O)Nc1cc(Cl)ccc1Cl | -3% | -16%
CCOC(=O)[C@]12Cc3cc(OC)ccc3[C@H]1N(C)C(=O)c1ccccc12 | ? | -2%
COc1ccc(NC(=O)CSc2nnnn2-c2cccc(OC)c2)cc1 | -3% | 0%
CC1(C(=O)O)CCCN1C(=O)c1ccc(Cl)cc1Cl (stereo not drawn) | 2% | 8%
CC1(Cc2ccccc2OC(F)(F)F)C(=O)Nc2ccc(S(=O)(=O)NC3CCCCC3)cc21 (stereo not drawn) | 44%[activator] | 10%
COCCNc1nc2cc(-c3ccsc3)sc2c(=O)n1C | 0% | 9%
Cc1ccc(F)c(S(=O)(=O)NC(=O)C2(C)CCN2C(=O)C/C=C/c2ccccc2)c1 (stereo not drawn) | -5% | 3%
CC(N)c1csc(Nc2ccc(C(=O)NCCO)cc2)n1 (stereo not drawn) | -17% | 12%
COc1cc(Nc2ccn3nc(-c4ccc(F)cc4)cc3n2)cc(OC)c1OC | 13% | -15%
COC(=O)[C@H]1C[C@@]2(O)CN(S(=O)(=O)c3ccc(C)cc3)C[C@@]2(OC(=O)NCc2ccc(OC)c(OC)c2)C[C@H]1C(=O)OC | ? | -4%
O=c1[nH][nH]c2c1[C@H](C1CCCC1)O[C@H](CCc1ccccc1)C2 | ? | 2%
CC1=C(C(=O)N(C)C)CC(CC(=O)NC2CCCCC2)C(=O)N1CCC1=CCCCC1 (stereo not drawn) | 62%[activator] | ?
NS(=O)(=O)c1ccc(NC(=S)Nc2ccc(S(=O)(=O)Nc3nccs3)cc2)cc1 | -8% | -3%[18.4 µM]
CCCc1nc2ccc(Br)cn2c1Cc1ccccc1 | 13% | -23%
CCOc1ccc(NC(=O)c2c(N)n(C)c(=O)[nH]c2=O)cc1 | 21% | -11%
C[C@@H](c1ccccc1)N1C[C@H](COCc2ccccc2)Oc2cc(N3CCC[C@H]3C(N)=O)ccc2S1(=O)=O | 3% | 4%
Cc1cc(C)cc(Cn2c3ccc(NC(=S)NC4CCCCC4)cc3c(=O)n2C)c1 | 16% | 8%
Cc1ccc(NCCCn2ccc(NC(=O)OCc3ccccc3)nc2=O)cc1C | 0% | -8%
OCC[C@@H]1C[C@H](O)[C@@H](O)[C@]2(OCc3ccc4ccccc4c32)O1 | -11% | 0%
COC(=O)[C@@]12C[C@@H](CC(=O)N3CCSCC3)C(=O)N(CCc3ccc(OC)c(OC)c3)C1=CCC(C)(C)C2 | -5% | 0%
CCOC(=O)C1CCCN(C(=O)c2cccc(Cl)c2)CC1 (stereo not drawn) | -5% | 9%[18.4 µM]
COc1ccc(CNC(=O)N2CCc3nc(Nc4cc(OC)c(OC)c(OC)c4)ncc3C2)cc1 | -12% | -7%
CC1(C)OC(=O)C2=C(C[C@@H](C3CCCC3)O[C@H]2CCc2cccc(Cl)c2)O1 | -20% | 10%
OC(c1cc(F)cc(Cl)c1)c1ncc(-c2cccc(C(F)(F)F)c2)[nH]1 (stereo not drawn) | -15% | -4%[18.4 µM]
CC1(C(=O)Nc2ccc3c(c2)OCCO3)CCN1C(=O)C/C=C/c1ccccc1 (stereo not drawn) | -29% | 5%
CCCCCCN1C[C@@H](O)[C@H](n2cc(COC(=O)c3ccccc3)nn2)C[C@@H]1c1ccc(Cl)cc1 | -9% | 8%
CN(C)CCN1CCN(C2CN(Cc3cn(Cc4cccc(C(F)(F)F)c4)nn3)S(=O)(=O)C2)CC1 (stereo not drawn) | 0% | -18%
COC[C@@H]1CCCN1c1ccc2c(c1)O[C@@H](COCc1ccccc1)CN([C@@H](C)c1ccccc1)S2(=O)=O | 36%[activator] | 11%
CC1CCC2(CC1)NC(=O)N(CC(=O)Nc1ccc(N3CCCCC3)cc1)C2=O (stereo not drawn) | -11% | -5%
CC(C)CNC(=O)C1(C)CCCN1C(=O)c1ccc2c(c1)CCO2 (stereo not drawn) | 6% | 7%
COc1ccccc1NC(=O)CN(Cc1ccco1)C(=O)c1cc(Cl)c(OC)c(OC)c1 | ? | -3%
O=C1NC[C@@H](CCCCN2CCN(CC3CCCCC3)C(=O)C2=O)N(Cc2ccccc2)C1=O | -9% | 20%
CN(C)c1ccc(S(=O)(=O)N2CCCCC2)cc1NC(=O)CCNC(=O)c1ccccc1Cl | 0% | 13%
O=C(NCC[C@@H]1CC[C@@H](NS(=O)(=O)c2ccccc2)[C@@H](CO)O1)c1cc(Cl)cc(Cl)c1 | -6% | 5%
CC(C)N1CCC1(C)C(=O)Nc1ccc(-n2cccc2)cc1 (stereo not drawn) | -5% | -7%[18.4 µM]
CCCCCCn1cc(CN2CC(N3CCSCC3)CS2(=O)=O)nn1 (stereo not drawn) | -18% | -13%
N#Cc1ccc(S(=O)(=O)N2CCCCC2c2cc(C(=O)NCc3cccnc3)no2)cc1 (stereo not drawn) | -6% | 2%[18.4 µM]
CCC(CC)CN1CCC(CN2C(=S)NC[C@@H]2[C@@H](C)CC)CC1 | -12% | -18%
Cc1ccccc1-c1ccc2c(c1)O[C@@H](CN(C)Cc1ccc(C(=O)O)cc1)[C@@H](C)CN([C@H](C)CO)S2(=O)=O | -21% | 81%

Two neighbouring compounds out of the list so far, quoted:
smiles | 2A StopGo | RE007 growth inh
CCC(CC)CN1CCC(CN2C(=S)NC[C@@H]2[C@@H](C)CC)CC1 | -12% | -18%
Cc1ccccc1-c1ccc2c(c1)O[C@@H](CN(C)Cc1ccc(C(=O)O)cc1)[C@@H](C)CN([C@H](C)CO)S2(=O)=O | -21% | 81%

Individual results from the results shown.
RE007 growth inh result of C[C@@H](c1ccccc1)N1C[C@H](COCc2ccccc2)Oc2cc(N3CCC[C@H]3C(N)=O)ccc2S1(=O)=O reads 4%
2A StopGo result of CN(C)c1ccc(S(=O)(=O)N2CCCCC2)cc1NC(=O)CCNC(=O)c1ccccc1Cl reads 0%
